Screens from PubChem.
Six1-Eya2 inh: qHTS Assay for Inhibitors of the Six1/Eya2 Interaction; Homeobox protein SIX1 (Homo sapiens) + Protein phosphatase EYA2 (Homo sapiens), …; AlphaScreen GST-Six1/His-Eya2 binding, biochemical; active compounds read low; control for the full effect not named in the record; activity change, % (concentration not given with the values); actives 0.56% (n = 360,000); in the data active = activity change below about -65%; inconclusive = about -30% to -65%; inactive = above about -30%; further: on the % scale 0 is the no-effect control and ±100 the full control effect
Target sequence (O00167 whole entry, looked up): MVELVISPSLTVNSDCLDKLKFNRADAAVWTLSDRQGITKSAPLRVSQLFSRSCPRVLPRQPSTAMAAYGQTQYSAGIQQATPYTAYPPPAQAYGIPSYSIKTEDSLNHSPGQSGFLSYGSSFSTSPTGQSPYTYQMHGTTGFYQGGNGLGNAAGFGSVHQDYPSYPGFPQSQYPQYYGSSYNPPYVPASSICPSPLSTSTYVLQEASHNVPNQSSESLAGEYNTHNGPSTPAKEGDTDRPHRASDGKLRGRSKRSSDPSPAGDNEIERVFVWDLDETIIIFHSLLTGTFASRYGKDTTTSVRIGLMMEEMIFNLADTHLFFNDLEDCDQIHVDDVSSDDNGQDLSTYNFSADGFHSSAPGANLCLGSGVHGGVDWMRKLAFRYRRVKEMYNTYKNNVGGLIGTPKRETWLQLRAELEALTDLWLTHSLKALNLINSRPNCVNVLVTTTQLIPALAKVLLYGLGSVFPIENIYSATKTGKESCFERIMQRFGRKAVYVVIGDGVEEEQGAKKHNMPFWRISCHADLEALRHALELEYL
Target sequence (Q15475 whole entry, looked up): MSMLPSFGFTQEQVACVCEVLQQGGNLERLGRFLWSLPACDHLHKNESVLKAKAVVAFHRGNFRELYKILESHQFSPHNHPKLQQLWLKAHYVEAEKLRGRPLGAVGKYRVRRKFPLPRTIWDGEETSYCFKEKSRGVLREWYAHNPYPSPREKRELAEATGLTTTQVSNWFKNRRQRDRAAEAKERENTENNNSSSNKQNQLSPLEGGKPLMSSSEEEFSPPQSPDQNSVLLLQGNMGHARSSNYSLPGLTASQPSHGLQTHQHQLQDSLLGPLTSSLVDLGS
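AlphaScreen luminescence read after one hour at 37 °C in darkness. Pin-transferred compounds met GST-Six1 and His-Eya2 protein (5X stock 250 nM/500 nM) plus glutathione donor and Ni-chelate acceptor beads (5X, 50 ug/mL).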
CtBP-E1A inh: qHTS Assay for Inhibitors of the CtBP/E1A Interaction; CtBP / adenovirus E1A interaction (AlphaScreen); actives 0.49% (n = 340,000); AlphaScreen GST-E1A/His-CtBP binding, 1536-well; active compounds read low; control for the full effect not named in the record; activity change, % (concentration not given with the values); in the data active means activity change below about -65%; inconclusive means about -30% to -65%; inactive means above about -30%; further: on the % scale 0 is the no-effect control and ±100 the full control effect
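Homogeneous bead-based format: GST-tagged E1A captured on glutathione donor beads, His-tagged CtBP on nickel acceptor beads; compounds precede bead addition by 2 h at 37 °C.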
TRPML1 ag: qHTS for Agonists of the Human Mucolipin Transient Receptor Potential 1 (TRPML1); Mucolipin-1 (Homo sapiens), Q9GZU1; TRPML1-expressing cells, Ca2+ dye fluorescence, FDSS; host cell line not named in the record; reference of the full effect not given here; activation, % (test concentration not listed); actives 0.12% (n = 410,000); AID 624414, 2012; in the data active = activation above about 50%; inconclusive = about 30% to 50%; inactive = below about 30%; further: 0% is about no effect; the text of the record puts the active cut at 80%
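Tetracycline-induced TRPML1-DL cells are seeded and incubated overnight before loading with a no-wash Ca2+ dye and quencher. Agonist activity is taken from the 110 s fluorescence read following compound pin-transfer on an FDSS, before EC80 54-4 challenge.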
TRPV1 potentiator: HTS Assay for Compounds that Act as Potentiators of the Vanilloid Receptor 1 | Transient receptor potential cation channel subfamily V member 1 (Homo sapiens), Q8NER1 | TRPV1-expressing cells, Fluo-8 calcium influx, capsaicin EC20 potentiation; host cell line not named in the record; control for the full effect not named in the record | potentiation, % at 8.33 µM | actives 0.02% (n = 320,000) | AID 540277, 2011; active means potentiation above 80%; inconclusive means 30% to 80%; inactive means below 30%; further: 0% is about no effect
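Fluo-8 calcium influx in TRPV1-expressing cells, kinetic read (ex 480/em 520 nm). Compound added and read 3 min for agonist activity, followed by capsaicin at EC20 final and 2 min further read for enhancement.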
D2 PAM: Beta-Arrestin HTS for Positive Allosteric Modulators of the Human D2 Dopamine Receptor: Potentiators; D(2) dopamine receptor (Homo sapiens), P14416; DiscoveRx D2 beta-arrestin cells, luminescence, 90 min; 100% = 57 uM dopamine signal; potentiation, % (concentration not given with the values); actives 0.23% (n = 360,000); AID 624464, 2012; active = potentiation of 50% or more; inconclusive = 30% to 50%; inactive = 30% or less;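 further: compound concentration not given in the record; tested on top of an EC20 dose of dopamine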
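PathHunter beta-arrestin assay in DiscoveRx D2 cells. Compounds were added with an EC20 of dopamine (50 nM final) for 90 min at 37 deg C. Luminescence was read 1 h after detection reagent, with 57 uM dopamine as the EC100 control.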
TRPML1 inh: qHTS for Inhibitors of the Human Mucolipin Transient Receptor Potential 1 (TRPML1); TRPML1-inducible cells, Ca2+ dye fluorescence, FDSS; active compounds read low; inhibition of EC80 agonist-evoked calcium signal; activity change, negative = inhibition, % (no concentration beside the values); actives 0.02% (n = 390,000); AID 624415, 2012; in the data active means activity change below about -50%; inconclusive means about -30% to -50%; inactive means above about -30%;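 further: stimulus is agonist 54-4 at its EC80 concentration; on the % scale 0 is the no-effect control and ±100 the full control effect; compound concentration not given in the record; the text of the record puts the active cut at -80%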
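Tet-induced TRPML1-DL cells loaded with Ca8 no-wash calcium dye were read kinetically on FDSS. Compound addition was followed by EC80 agonist 54-4 (4 uM final); inhibition was read over 110 s.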
An asterisk follows results filed as active; ? = inconclusive; . = no result given; & = joins results of further samples.

canonical_smiles	CtBP-E1A inh	TRPML1 ag	Six1-Eya2 inh	D2 PAM	TRPV1 potentiator	TRPML1 inh
COc1cccc(C2/C(=C(/O)c3ccc4c(c3)CC(C)O4)C(=O)C(=O)N2CCCn2ccnc2)c1 (stereo unspecified)	0	-0.1	6	9	-7	-6
COc1ccccc1OCCC(=O)Nc1ccc2c(c1)OCO2	.	-1.2	5	-17	.	24
Cc1[nH]c(=O)[nH]c(=O)c1S(=O)(=O)Nc1ccc(Cl)c([N+](=O)[O-])c1	0	-0.9	4	-12	14	-4
C=CCNC(=O)/C(=C/c1cccc([N+](=O)[O-])c1)NC(=O)c1ccccc1	5	-0.2	5	-7	3	-2
COc1ccc([N+](=O)[O-])cc1NC(=O)CC(c1ccccc1)c1ccccc1	5	-0.4	-1	0	0	-23
CC1=C/C(=C(/c2ccc(O)c(C)c2)c2ccccc2S(=O)(=O)O)C=CC1=O	?	4.2	?	-9	2	7
Cc1cc(C)n2c(NC3CCCC3)c(-c3ccc(F)cc3)nc2n1	-3	-1.2	-2	.	.	.
CN(C(=O)c1cccc(NC(=O)Cc2ccc(NC(=O)C3CCCN(C(=O)CCc4ccccc4)C3)cc2)c1)C1CC1 (stereo unspecified)	0	4.0	1	-7	.	1
O=c1c(CN2CCN(c3cccc(Cl)c3)CC2)coc2c(Cl)cc(Cl)cc12	4	1.8	7	-10	-9	32
CC(=O)Nc1ccc(SCC(=O)c2cc(C)n(-c3ccccc3)c2C)cc1	-1	0.1	-1	-10	-6	2
COCCNc1cc(C)nc2ccccc12	-6	1.0	12	-10	4	-29
Cc1ccc2nc(C(C)(C)C)c(Cc3ccccc3C(F)(F)F)n2c1	-15	-0.6	0	-15	.	.
COC(=O)C1=C(C(=O)c2ccc(C)cc2)C(c2ccc(O)c(OC)c2)n2nnnc2N1 (stereo unspecified)	5	0.6	0	15	4	8
COc1cc(CNCc2ccccn2)ccc1OCc1c(Cl)cccc1Cl	?	1.1	?	-17	?	29
Cc1cc(Br)ccc1NC(=O)CN(C)C(=O)C1=COCCO1	.	-0.3	-5	-3	.	0
COc1ccc(CN(C)C(=O)c2cnc(OC)cc2C(F)(F)F)c(OC)c1	-5	1.5	1	-9	1	28
CC1(C(=O)NS(=O)(=O)c2ccccc2OC(F)(F)F)CCN1C(=O)c1ccccc1 (stereo unspecified)	0	-0.2	8	-2	.	-22
CCCN(CC(=O)Nc1ccc(C(N)=O)cc1)CC(=O)Nc1ccc(F)c(F)c1F	.	1.0	-4	-7	-2	6
Cc1ccc(C(=O)NCCc2csc(-c3cccnc3)n2)cc1	-4	-0.4	-2	-7	-6	-8
Cc1ccc(CNC(=O)c2sc3nc4c(c(C(F)(F)F)c3c2N)CCC4)cc1	17	-0.2	8	-8	-8	-17
C=CCSc1nnc(-c2ccc([N+](=O)[O-])cc2)o1	.	0.5	0	-1	15	2
CCOC(=O)c1[nH]c2ccc(OC)cc2c1NS(=O)(=O)c1ccc(Cl)s1	11	-1.7	-6	-2	2	-1
OCCOc1ccc(CN2CCCC(N3CCN(c4ccc(F)cc4)CC3)C2)cc1 (stereo unspecified)	4	0.1	-3	-6	9	38
COc1ccc(C(=O)Nc2ccccc2C(=O)NC(C(=O)NCc2ccco2)C(C)C)cc1 (stereo unspecified)	5	0.3	2	-7	7	-5
O=C(NCc1ccccn1)Nc1ccc(F)cc1F	-5	.	?	-7	-19	.

Whole records as entered above. Order of screens: CtBP-E1A inh, TRPML1 ag, Six1-Eya2 inh, D2 PAM, TRPV1 potentiator, TRPML1 inh
Profile of O=c1c(CN2CCN(c3cccc(Cl)c3)CC2)coc2c(Cl)cc(Cl)cc12 : 4, 1.8, 7, -10, -9, 32
Profile of C=CCSc1nnc(-c2ccc([N+](=O)[O-])cc2)o1 : ., 0.5, 0, -1, 15, 2
Profile of COc1ccc([N+](=O)[O-])cc1NC(=O)CC(c1ccccc1)c1ccccc1 : 5, -0.4, -1, 0, 0, -23
Profile of CN(C(=O)c1cccc(NC(=O)Cc2ccc(NC(=O)C3CCCN(C(=O)CCc4ccccc4)C3)cc2)c1)C1CC1 (stereo unspecified) : 0, 4.0, 1, -7, ., 1

Next part.
canonical_smiles	CtBP-E1A inh	TRPML1 ag	Six1-Eya2 inh	D2 PAM	TRPV1 potentiator	TRPML1 inh
Cc1cc(-c2nnc3n2N=C(C(C)(C)C)CS3)n[nH]1	-1	-1.2	-5	-2	-19	3
COc1ccc(CCNC(=O)c2cc(-c3ccncc3)nc3c(Cl)cccc23)cc1OC	6	0.5	-21	-13	15	21
C/C(CC(=O)Nc1ccc2c(c1)OCO2)=N\NC(=O)c1ccc(N)cc1	3	0.9	0	-1	-12	-9
CN(C)c1ccc(-c2ccnc3c2CC(C)(C(=O)NCC2CC2)O3)cc1 (stereo unspecified)	-27	-1.1	-21	3	.	.
CC(C)N1C[C@@]23C=C[C@@H](O2)C(C(=O)OCc2ccccc2)[C@H]3C1=O (stereo partly specified)	-1	0.3	3	4	6	-24
CCOC(=O)CC1C(=O)NCCN1c1nc2c(C)cccn2c(=O)c1/C=C1\SC(=S)N(C(C)CC)C1=O (stereo unspecified)	0	71*	13	2	23	1
O=C(O)c1ccc(-c2nnc(-c3ccc([N+](=O)[O-])cc3)o2)cc1	.	-0.3	-4	-20	7	-16
CC(C)(C)[C@H]1COC(=O)[C@@H](Cc2ccc(F)cc2)C/C=C\C[C@@H](CC(=O)N[C@H](CO)Cc2ccccc2)C(=O)N1	.	0.2	-4	-6	.	-2
O=C(NCc1nc(-c2ccc(C(F)(F)F)cc2)no1)Nc1ccc(OC(F)(F)F)cc1	6	3.0	3	-2	-22	-2
Cc1ccc(NC(=O)CCCN2C(=O)NC(C)(C)C2=O)cc1	-3	-0.5	5	-10	-6	49
O=S(=O)(O)c1nc2ccccc2[nH]1	-4	.	-12	-7	1	.
O=C(/C=C/c1ccco1)N1CCN(C/C=C/c2ccccc2)CC1	1	-0.4	-2	-34	-3	16
Cc1ccc(C)c(S(=O)(=O)n2cnc3ccccc32)c1	4	0.1	3	-2	-15	18
COCCN(C(=O)CCC(=O)Nc1cc(C)on1)C(C(=O)NC1CCCC1)c1ccccc1C (stereo unspecified)	3	-0.8	4	-6	28	-3
CCCN1C2CCCC1CC(NC(=O)c1ccccc1Br)C2 (stereo unspecified)	8	-0.3	7	-10	-5	0
Cc1ccsc1C(=O)Nc1cccc(S(=O)(=O)N(C)C)c1	1	-0.5	6	-13	-5	-2
O=C(C[C@@H]1C/C=C\C[C@@H](Cc2ccc(F)cc2)C(=O)OC[C@H]2CCCN2C1=O)NCCO	6	-0.2	12	-4	.	-12
O=C1c2ccc(Br)cc2C(=O)N1c1ccc(Cl)cn1	10	-0.6	5	-1	0	-13
COc1ccc2cc(C3(C)NC(=O)N(CC(=O)N4CCCCC4)C3=O)ccc2c1 (stereo unspecified)	-3	-0.7	8	-4	.	9
CCSc1nnc(CNc2ccc(C)cc2)n1C	.	0.2	0	-5	-2	-10
CO/N=C(/CN1CCCCC1)c1ccc(Cl)cc1	6	1.6	8	-2	-9	23
COc1ccc(C(=O)NCCn2ccc3ccccc32)cc1OC	0	-0.3	2	-6	8	5
COc1ccc(CN2C(=O)NC3(CCCc4ccccc43)C2=O)cc1F (stereo unspecified)	11	0.3	-15	-1	-5	7
CC(=O)Nc1cc(-c2cccc(C(=O)N(C)C)c2)cn2c(-c3cccc(C(=O)N(C)C)c3)cnc12	-12	-0.7	-7	-7	.	.
CCOC(=O)C1(CCc2ccccc2)CCN(Cc2cccc3nccnc23)CC1	-14	3.0	-8	-7	25	4

canonical_smiles	CtBP-E1A inh	TRPML1 ag	Six1-Eya2 inh	D2 PAM	TRPV1 potentiator	TRPML1 inh
CCOc1ccc(-c2cc(C(=O)Nc3ccc(C)c(NS(C)(=O)=O)c3)[nH]n2)c(C)c1	-1	-1.0	-5	-5	.	.
Cn1cc(Br)c(-c2cccc(N3C(=O)CCCC3=O)c2)n1	16	-0.5	-4	-4	2	42
COCCNC(=O)C1(C(F)(F)F)CC(CCCO)CCCO1 (stereo unspecified)	.	0.2&0.7	6	-8	.	-11&-23
CCc1ccc(OCc2nnc(SCCN3CCOCC3)n2C)cc1	1	4.1	3	4	-16	0
CCCC12CN3CC(C)(CN(C1)C3c1ccc([N+](=O)[O-])o1)C2=O (stereo unspecified)	-2	0.5	-5	-18	2	9
CCN(CCCCN1C(=O)c2ccccc2C1=O)c1ccc2c(c1)C(=O)N(C)C2=O	51	1.6	14	-2	-12	6
COc1ccc(S(=O)(=O)N2CCC(C(=O)N[C@H](C(=O)N3CCCC3)C(C)C)CC2)cc1	7	-0.6	0	-2	2	0
CSc1ccccc1NC(=O)CNCCCN1CCOCC1	6	-0.2	13	-6	-6	7
CCn1c(SCc2nc(-c3ccc(OC)c(OC)c3)no2)nnc1-c1cccs1	-15	0.5	-22	-6	14	-11
Cc1nc2ncnn2c(N2CCN(C(=O)c3cccc(F)c3)CC2)c1C	3	-0.8	2	-24	6	4
O=C(O)c1ccc(N/C(=N\S(=O)(=O)c2ccc(Cl)cc2)c2ccccc2)cc1	-13	.	6	-5	-1	.
Cc1ccc(-c2c3c([nH]c(=S)c2C#N)CCCC3)o1	-23	-0.2	-20	-9	2	13
Cc1ccc(NC(=S)NC(=O)c2ccc(-c3ccccc3)cc2)c(C)c1	-21	1.8	-13	-11	1	19
O=C(COc1ccc(F)cc1)Nc1nccs1	2	-0.8	0	-1	-7	3
COc1ccc(NC(=O)CCn2nc(C)cc2C)cc1	8	-0.3	-3	-7	1	9
Cc1cc(C)c(C)c(S(=O)(=O)N2CCN(C(=S)NCC3CCCO3)CC2)c1C (stereo unspecified)	-13	-0.3	1	-1	-6	5
COc1ccccc1Nc1ncccc1C(=O)O	2	-0.1	6	-3	?	23
O=C(CN1CCN(c2ccc([N+](=O)[O-])cc2)CC1)Nc1nccs1	-12	0.5	-11	5	-10	2
Cc1ccc(CNC(=O)C2CCN(S(=O)(=O)c3cccs3)CC2)cc1	7	-1.5	4	-8	-17	43
COc1ccc(C(=O)Nc2c3c(nn2C(C)(C)C)CS(=O)(=O)C3)cc1OC	1	0.2	6	-6	-3	26
Cc1ccc(N2C(=O)CC(NNc3nc4ccccc4s3)C2=O)cc1C (stereo unspecified)	-16	2.2	7	-9	-11	11
COc1cc2cccc(OC)c(=O)c2c(O)c1OC	-19	-0.5	-11	-6	23	-4
Cc1ccc(S(=O)(=O)N(CC(=O)N2CCCCC2)c2cccc(C)c2)cc1	0	0.0	16	-6	-12	-1
Cc1ccc(-c2c[n+](Cc3ccc(Cl)cc3)c3n2CCC3)cc1	-2	-0.3	-4	-18	-5	37
C#CCn1cnc2c(oc3ccccc32)c1=O	.	0.0	-10	-12	19	-9
